Screens: PubChem BioAssay, National Center for Advancing Translational Sciences (NCATS)
StopGo FLuc = lowers the firefly signal of an FMDV 2A StopGo reporter | Potency, µM (titrated, usually from 57.5 µM), for inactives: at the top dose signal change, negative = less light | 120,000 compounds, 0.23% hits | HEK cells with a luciferase reporter of 2A StopGo recoding; active = well fitted falling curve with a large enough effect; inconclusive = small, poorly fitted or top-dose-only effect; inactive = no such curve, though single readings can be large or run the other way; further: nearly all actives have a fitted effect of over 60% in size; overnight with compound
2A Renilla = FMDV 2A StopGo reporter, Renilla signal. HEK cells with a luciferase reporter of 2A StopGo recoding. Potency, µM (highest dose often 57.5 µM), for inactives: at the top dose signal change, negative = less light. 120,000 compounds, 0.32% hits. AID 1745857; active means well fitted falling curve with a large enough effect; inconclusive means small, poorly fitted or top-dose-only effect; inactive means no such curve, though single readings can be large or run the other way; further: nearly all actives have a fitted effect of over 55% in size; overnight with compound
Active calls of the source: *; ? = inconclusive; & = joins results of further samples; [ ] = another dose, or the depositor's remark. On the % scale 0 is the no-effect control and ±100 the full control effect; potency means the concentration at half of the fitted maximal effect. These rows are one share of the data; rates above refer to the full screens.

SMILES | StopGo FLuc | 2A Renilla
Cc1ccc(C)c(Nc2nnc(-c3ccc(C)c(S(=O)(=O)N4CCCCC4)c3)c3ccccc23)c1 | 17.3% | 0.0%
CCc1ccc(NC(=O)CSc2nc(C)cc(COC)c2C#N)cc1 | 22.0% | -0.1%
O=Cc1cc2cc(Br)ccc2[nH]1 | 27.9% | -1.5%
COc1ccc(CCNC(=O)CC2Sc3ccccc3NC2=O)cc1OC (centres undefined) | 9.2% | 0.0%
COc1ccc(-c2onc(C)c2C)cc1S(=O)(=O)N1CCN(c2ccc(Cl)cc2)CC1 | -17.5% | -2.5%
Cc1cc(C(=O)COC(=O)Cn2cnc3c2c(=O)n(C)c(=O)n3C)c(C)n1CC(F)(F)F | 3.6% | -4.4%
CC(C)(C)NC(=O)CSc1nc(C2CC2)nc2ccccc12 | -12.4% | -29.3%
CC(=O)Nc1ccc(NC(=O)CCc2nc(-c3ccc(C)n(C(C)C)c3=O)no2)cc1 | 0.9% | 0.8%
COc1cccc(CNC(=O)CSc2nc3ccccc3nc2Cc2ccccc2)c1 | -6.4% | 1.0%
O=C(CCc1ncc(-c2ccc(Cl)cc2)o1)NCc1cccc(Cl)c1 | 22.3% | 0.7%
CCCCc1cc(=O)oc2c(C)c(OC(C)C(=O)OCC)ccc12 (centres undefined) | -9.9% | -9.4%
CN(c1cccc(F)c1)S(=O)(=O)c1c(-c2ccc(F)cc2)csc1C(=O)NCc1ccco1 | -15.8% | 34.2%[activator]
CCOc1ccc(CCNC(=O)Cn2nc(CC)n3c(cc4ccccc43)c2=O)cc1 | -14.1% | -11.2%
Cc1cc(C)c2c(CC(=O)Nc3ccc(S(=O)(=O)Nc4nc(C)cc(C)n4)cc3)coc2c1 | -25.6% | 76.8%[activator]
Cc1ccn2c(=O)c(C(=O)NCCCN3CCCCC3C)c(O)nc2c1 (centres undefined) | -14.2% | -10.2%
O=C(COc1ccc2ccc(=O)oc2c1)Nc1ccc(F)c(F)c1F | 1.5% | -12.3%
N#Cc1ccccc1Cn1c(CN2CCCCC2)nc2scc(-c3cccs3)c2c1=O | 0.9% | -6.9%
COc1ccc(C(=O)CSc2nnc(C(NC(=O)c3ccc(OC)cc3)C(C)C)n2C)cc1 (centres undefined) | -2.1% | -3.1%
CCc1ccc(NC(=O)C(CC)n2c(=O)c(C(F)(F)F)nc3ccccc32)cc1 (centres undefined) | -20.0% | -10.5%
COc1ccc(NC(=O)C2=C(C)Nc3nc4ccccc4n3C2c2ccccc2C)cc1 (centres undefined) | -6.0% | -9.3%
Cc1ccc(NC(=O)N2CCc3cc(S(=O)(=O)N4CCC(C)CC4)ccc32)cc1F | 7.6%&0.0% | 28.4%&14.6%
Cc1ccc(NC(=O)c2cncn2-c2ccc(F)cc2)cc1S(N)(=O)=O | -8.0% | 5.5%
O=C(Nc1ccccc1Cl)c1cc(=O)c2ccccc2o1 | 175.2%[activator] | -5.3%
O=C(Cc1n[nH]c(=O)c2ccccc12)NC1CCc2ccccc21 (centres undefined) | 6.7% | 1.5%
COc1ccccc1NC(=O)COc1nc(C(C)C)c2c(c1C#N)CC(C)(C)OC2 | 8.4% | 17.3%
CC(=O)c1ccc(NC(=O)CSc2nc(-c3ccc(C)cc3)nc3c2c(=O)n(C)c(=O)n3C)cc1 | -14.0% | -9.6%
CCc1ccc2oc(-c3cc(NC(=O)c4cc(OC)c(OC)c(OC)c4)ccc3O)nc2c1 | -6.7% | -5.4%
COCCCNC(=O)CSc1ccccc1C | 0.0% | -4.6%
CSc1cccc(NC(=O)/C=C/c2ccc(Cl)cc2Cl)c1 | 0.0% | 0.3%
CS(=O)(=O)N1N=C(c2ccc(Br)cc2)CC1c1ccc(Br)cc1 (centres undefined) | 115.1%[activator] | 70.3%[activator]
CCN(c1ccccc1)c1nnc(NC(=O)Nc2ccc(Br)cc2)s1 | 19.7% | -10.8%
Cc1ccc2c(-c3oc4ccccc4c3N)cc(=O)oc2c1 | 52.8%[activator] | 49.0%[activator]
COc1cc(C2CC(=O)Nc3c2c(C)nn3-c2ccc(C)cc2)cc(OC)c1O (centres undefined) | 2.8% | 1.0%
O=C(O)c1cc(I)ccc1I | 9.8% | 7.6%
COc1ccc(CNS(=O)(=O)c2cnc(N)nc2)cc1 | -14.9% | -11.5%
CCOc1ccccc1NC(=O)N1CCc2c(sc3c2CCCC3)C1c1ccccc1 (centres undefined) | -10.9% | 2.6%
CC1NCC[C@H](O)[C@@H]1C (some centres undefined) | 1.5% | 13.2%
CCOc1ccc(C2C(=O)N(C3CCCCCC3)CC(=O)N2Cc2ccccc2)cc1OC (centres undefined) | -9.8% | 31.7%[activator]
Cc1ccc(C(=O)NCC2CC3c4ccccc4C2c2ccccc23)cc1 (centres undefined) | -18.7% | ?
CCN1CCN(CCOc2ccc3cc(-c4ccccc4)c(=O)oc3c2)CC1 | 196.7%[activator] | -3.5%
CSc1ccccc1NC(=O)CC(C)C | 112.0%[activator] | -9.5%
COc1ccc(-c2c(-c3ccc(OC)cc3O)nc(N)nc2C(F)(F)F)cc1 | -0.5% | 11.0%
Cn1c(SCC(=O)Nc2ccc(Br)cc2F)nc2c(=O)[nH]cnc21 | 25.0% | 0.9%
CC(NC(=S)Nc1ccc(SC(F)F)cc1)c1ccncc1 (centres undefined) | ? | -14.0%
COc1cc(NC(=O)CCc2c(C)nc3c(c(C)nn3-c3ccccc3)c2C)cc(OC)c1OC | -24.1% | -5.1%
CC(C)c1ccc(NC(=O)CN2C(=O)CCc3cc(S(=O)(=O)N4CCOCC4)ccc32)cc1 | 21.2% | 5.2%
Cc1cccc(NC(=O)CN2CCN(C(=O)NCc3ccccc3CN(C)C)CC2)c1C | -10.9% | -10.9%
O=C(Nc1ccc2nc(SCC(=O)N3CCCc4ccccc43)sc2c1)c1ccccc1 | 0.0% | -9.8%
COC(=O)c1ccc(COC(=O)CCc2nc3ccccc3[nH]c2=O)cc1 | -8.5% | 2.7%
O=C(Cn1cc(SCc2cccc(F)c2)c2ccccc21)N1CCCC1 | 146.0%&104.7%[activator] | 83.3%&59.0%[activator]
O=C(CCCCn1c(=O)c2ccccc2n(CC(=O)Nc2cccc(C(F)(F)F)c2)c1=O)NCc1ccc2c(c1)OCO2 | -7.2% | 23.4%
CC1N=C2c3ccccc3N=C(SCC(=O)NCCc3ccccc3)N2C1=O (centres undefined) | 14.2% | 14.8%
COc1ccccc1NC(=O)CSc1nc(-c2ccc(C(C)(C)C)cc2)c(C#N)c(=O)[nH]1 | 18.4% | 0.0%
COCCn1c(N2CCN(Cc3c(F)cccc3Cl)CC2)nc2c1c(=O)[nH]c(=O)n2C | 18.9% | 14.1%
COc1ccc2nc(NC(=O)c3cc(-c4ccc(C)c(C)c4)on3)sc2c1 | 8.0% | 9.6%
C=CCSc1nc2c(c(=O)n(C)c(=O)n2C)n1Cc1ccc(Cl)cc1 | -6.9% | -13.3%
CC(C)CC(C(=O)NCCc1ccccc1)N1Cc2ccccc2C1=O (centres undefined) | 0.0% | 89.8%[activator]
Cc1ccc(C)c(NC(=O)Cn2c(=O)oc3cc(S(=O)(=O)NCc4ccccc4)ccc32)c1 | ? | 143.7%[activator]
Cc1cc(Cl)ccc1OCCCc1n[nH]c(=S)n1Cc1ccccc1 | -23.3% | -12.1%
CCN(CC)CCn1c(-c2ccccc2)csc1=Nc1ccccc1 | 23.2% | 4.1%

Additional records follow.
SMILES | StopGo FLuc | 2A Renilla
COc1c(Br)cc(Br)cc1/C=C(\C#N)c1nc2ccccc2[nH]1 | 21.5% | -5.8%
O=C(NCCN1CCCCC1)c1ccc(Cn2c(SCc3ccccc3)nc3cccnc32)cc1 | 45.1%[activator] | -9.8%
COc1ccc(-n2ncc(C(=O)NCc3ccc4c(c3)OCO4)c2C2CCN(C(=O)OC(C)(C)C)CC2)cc1 | -11.8% | 10.1%
CCOC(=O)c1oc2cc(O)c(CC)cc2c(=O)c1-c1ccc2c(c1)OCCO2 | 24.4% | 26.2%
O=C(CN1C(=O)COc2ccc(S(=O)(=O)N3CCOCC3)cc21)N1CCN(c2ccccc2F)CC1 | 1.5% | -1.5%
O=S(=O)(O)C(F)(F)C(F)(F)C(F)(F)C(F)(F)C(F)(F)C(F)(F)C(F)(F)C(F)(F)F | -14.0%[22.9 µM] | -18.2%[114 µM]
CCn1c(SCc2ccccc2F)nc(=O)c2c(C(=O)OC)cc(C3CC3)nc21 | ? | -25.9%
O=C(NCCCCNC(=O)C1CC1)C1CC1 | 8.1% | 0.1%
Cc1sc2ncnc(SC(F)F)c2c1C | -0.2% | -3.3%
O=C(NC1CCCCCCC1)c1ccc2ccccc2c1 | 234.4%[activator] | 30.8%[activator]
CC(C)OC(=O)C(CC(=O)O)N1CCCC1 (centres undefined) | -2.9% | -10.1%
COc1ccc(C(C)=O)c(OC(=O)c2cc(F)c(F)cc2Cl)c1 | 2.8% | -1.6%

In another format: results already given.
CCn1c(SCc2ccccc2F)nc(=O)c2c(C(=O)OC)cc(C3CC3)nc21
  StopGo FLuc = ?
  2A Renilla = -25.9%

O=C(NCCCCNC(=O)C1CC1)C1CC1
  StopGo FLuc = 8.1%
  2A Renilla = 0.1%

Cc1sc2ncnc(SC(F)F)c2c1C
  StopGo FLuc = -0.2%
  2A Renilla = -3.3%

O=C(NC1CCCCCCC1)c1ccc2ccccc2c1
  StopGo FLuc = 234.4%[activator]
  2A Renilla = 30.8%[activator]

Going on with the list.
SMILES | StopGo FLuc | 2A Renilla
COC(=O)c1cc2c(cc1NC(=O)c1c(C)nn(-c3ccc(C)cc3)c1-n1cccc1)OCO2 | -4.3% | -6.4%
COCCNC(=O)CCn1nc(-c2ccc(Cl)cc2)c2ccccc2c1=O | 8.0%&-12.2% | -0.8%&-12.6%
CCC(C)(C)NC(=O)C(NS(=O)(=O)c1cccs1)c1ccccc1 (centres undefined) | 8.8% | 4.9%
CCCC(C)NC(=O)c1ccc(CNC(=O)NC(C)C)cc1 (centres undefined) | 3.0% | 1.5%
CC(C)(C)c1ccc(NC(=O)C2CCCN2S(=O)(=O)c2ccc(F)cc2)cc1 (centres undefined) | -29.1% | ?
COc1ccc(OC)c(NC(=O)c2cc3c(=O)n4cccc(C)c4nc3n2C)c1 | -0.5% | -6.6%
O=C(N[C@H](CO)[C@H](O)c1ccc([N+](=O)[O-])cc1)C(Cl)Cl | -10.0%[22.9 µM] | ?
CC1CCN(S(=O)(=O)c2ccc(NC(=O)C3CC(=O)N(CCc4ccc(F)cc4)C3)cc2)CC1 (centres undefined) | -12.9% | 176.2%[activator]
O=c1c2cnc3ncnn3c2ccn1CCc1c[nH]c2ccc(Cl)cc12 | 14.0% | -1.9%
Cc1cc(C)cc(C(=O)NC2CCCc3ccccc32)c1 (centres undefined) | -3.2% | 18.7%[1.06 µM]
O=C1CC(C(=O)Nc2ccc3c(c2)OCCO3)N=C(N2CCN(c3ccccc3)CC2)N1 (centres undefined) | 55.2%[activator] | 0.6%
CCc1c(C)sc2nc(N(CC)CCO)n3nc(-c4ccccc4)nc3c12 | -5.1% | -10.7%
O=C(NCC(c1cccnc1)N1CCN(Cc2ccccc2)CC1)C(=O)Nc1cccc(F)c1 (centres undefined) | 0.0% | 214.6%[activator]
COc1ccc(-c2nn(CC(=O)NCc3ccccc3)c3c2cnc2ccc(F)cc23)cc1 | 35.2%[activator] | -3.7%
CNC(=S)N/N=C/c1ccc(SC)cc1 | 127.4%[activator] | 3.0%
COc1ccc(Nc2cc(C(=O)NCCCN(C)C3CCCCC3)c3ccccc3n2)cc1 | -13.5% | -2.4%
Cc1c(C(=O)Nc2ccccc2)sc2c1C(c1ccncc1)CC(=O)N2 (centres undefined) | 141.1%[activator] | -3.1%
CCOC(=O)c1c(NC(=O)c2cc(-c3ccc(OC)cc3)on2)sc(C)c1C | -1.1% | 4.0%
COc1ccc(/C=C/C(=O)c2ccc(C#N)cc2)cc1F | 10.1% | 14.2%
O=C1NC2(C(=O)Nc3ccc(Br)cc3)CCC(=O)N2c2ccccc21 (centres undefined) | 10.0% | 0.0%
Cc1cccc(N(C)C(=O)Cn2cnc3nc4c(cc3c2=O)CCCC4)c1 | -12.1% | -14.7%
c1ccc(-c2ccc(CNCc3cccs3)o2)cc1 | 0.0% | 10.3%
COc1ccc(-c2noc(CN(C(=O)c3cccs3)C3CCCCC3)n2)cc1 | -9.1% | 14.3%
Cc1cc(C)cc(NC(=O)N2CCN(C)c3ncccc32)c1 | -11.5% | -8.6%
CCOC(=O)c1c(NC(=O)c2ccc(S(=O)(=O)N3CCC(C)CC3)cc2)sc2c1CCN(C)C2 | -6.1% | 3.1%
COc1cccc2cc(C(=O)OC(C)C(=O)c3ccc(Cl)cc3)c(=O)oc12 (centres undefined) | 15.2% | 2.5%
Cc1cc(C)cc(NC(=O)Nc2nnc(N(C)C3CCCCC3)s2)c1 | -0.8% | -6.7%
CCCCC12CN3CC(C)(CN(C1)C(=O)c1ccccc1C3=O)C2=O | -2.0% | 0.6%
CCn1c(=O)c(=O)n(CC)c2cc(N3CCCCC3)c(NC(=O)c3ccc(C)cc3)cc21 | 12.5% | 21.3%
CC(C)CC(NC(=O)/C(=C/c1ccc(Cl)cc1)NC(=O)c1ccccc1)C(=O)O (centres undefined) | 13.4% | 7.3%
CC(C)(C)c1[nH]nc(C(=O)O)c1Br | -4.7% | 2.4%
Cc1cc(=O)oc2cc(OC(C)C(=O)Nc3ccc(S(=O)(=O)NC(C)C)cc3)ccc12 (centres undefined) | -14.4% | 0.0%
